# B2AR ag = beta2AR agonists driving receptor internalization, primary screen, cell-based, FAP fluorogen, flow cytometry | Am2.2-beta2AR cells; reference of the scale not given here | 0.43% of 340,000 active | response, % (test concentration not listed) | Beta-2 adrenergic receptor (Homo sapiens), P07550;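 active = response above a set limit, near 3 SD of response in nonfluorescent compounds, cut at about 42% in these data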;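 note: stock transfer was 100 nL into about 11 µL; a reference agonist was the positive control; negative values mostly stem from fluorescent compounds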
# UCH37 DUB inh = inhibitors of human UCH37 deubiquitinase, primary screen, biochemical, Ub-AMC cleavage, fluorescence; Ubiquitin carboxyl-terminal hydrolase isozyme L5 (Homo sapiens), Q9Y5K5; purified proteasome/UCH37; inhibition, % (no concentration beside the values); 0.33% of 330,000 active; AID 588478, 2011;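 active = mean of two replicates above 20%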;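 note: 0% = compound-free wells with enzyme and 100% = wells lacking proteasome; stock transfer was 100 nL into about 20 µL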
# Target sequence (Q9Y5K5 whole entry, looked up): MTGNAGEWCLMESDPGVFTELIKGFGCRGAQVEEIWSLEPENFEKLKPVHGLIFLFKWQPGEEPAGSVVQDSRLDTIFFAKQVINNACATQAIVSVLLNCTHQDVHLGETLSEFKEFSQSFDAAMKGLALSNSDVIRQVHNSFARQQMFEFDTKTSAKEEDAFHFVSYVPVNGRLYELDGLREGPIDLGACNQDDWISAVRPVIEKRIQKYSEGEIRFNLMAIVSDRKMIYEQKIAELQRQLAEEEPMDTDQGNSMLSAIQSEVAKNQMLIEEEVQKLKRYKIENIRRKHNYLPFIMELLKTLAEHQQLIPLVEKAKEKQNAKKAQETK
#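 system = Proteasome-associated human UCH37 deubiquitinase | amount = 0.15 nM proteasome as dispensed | medium = pH 7.4 Tris-HCl (50 mM) with ovalbumin, ATP-MgCl2, DTT | incubation = 30 min preincubation with enzyme, 25 min cleavage at room temperature | detection = AMC fluorescence 355/460 nm | read-out basis = percent inhibition | controls = no-proteasome and no-compound wells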
# ALR H2O2 inh = inhibitors of human ALR sulfhydryl oxidase, primary screen, biochemical, H2O2 detection, HRP-luminol luminescence, single point; purified ALR, DTT oxidation; inhibition, % (concentration not given with the values); FAD-linked sulfhydryl oxidase ALR (Homo sapiens), P55789; 3.8% of 290,000 active;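 active = mean and each replicate at 75% or more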;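 note: stock transfer was 7.5 nL into about 7.5 µL; 0% = neutral wells and 100% = wells with inactivated enzyme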
# Target sequence (P55789 whole entry, looked up): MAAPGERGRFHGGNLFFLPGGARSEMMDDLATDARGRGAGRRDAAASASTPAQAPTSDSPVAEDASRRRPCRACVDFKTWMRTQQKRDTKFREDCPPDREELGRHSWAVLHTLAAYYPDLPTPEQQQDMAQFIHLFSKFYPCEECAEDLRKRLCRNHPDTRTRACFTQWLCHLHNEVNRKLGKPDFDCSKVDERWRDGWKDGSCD
# Ecoli rRNA inh = reduced GFP signal of wild-type E. coli, primary screen, bacterial rRNA inhibitor project, GFP/RFP fluorescence, OD600, single point; E. coli WT GFP vs humanized-ribosome RFP mutants, 24 h; active compounds read low; DMSO median 0, no signal -100; GFP signal change (wild-type ribosome), % (test concentration not listed); 1.6% of 350,000 active; AID 720706, 2013;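 active = significant combined selectivity score with lowered wild-type GFP, culture density cut under 30%, mutant RFP and density less affected; inactive = any of these conditions unmet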; note: one replicate is shown; some compounds called inactive have numbers as strong as hits
# HNF4A DNA FP = change in binding of human HNF4A to DNA, primary screen, biochemical, fluorescence polarization, FITC-DNA | AID 1224865, 2016 | Hepatocyte nuclear factor 4-alpha (Homo sapiens), P41235 | 0.3% of 360,000 active | 1 h | activity change, % at 10 µM; in the data active = activity change above about 30%, passing the limit was not always enough;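 note: controls were the assay level and a saturating level of protein; the project sought stronger binding though the title names inhibitors; some compounds called inactive have numbers as strong as hits; positive values seem to mean higher polarization but the record does not say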
# FGF22 binding = binders of human FGF22 protein, primary screen, FGF22 synaptogenesis inhibitor project, biophysical, thermal shift, single point. recombinant FGF22 thermal shift, SYPRO orange fluorescence; percent of sucrose octasulfate shift, DMSO zero. calls only at 9.99 µM. 1.5% of 340,000 active;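 active = melting point raised past a set limit in the mean and every replicate; three in four hits are not shown here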
# Target sequence (Q9HCT0 whole entry, looked up): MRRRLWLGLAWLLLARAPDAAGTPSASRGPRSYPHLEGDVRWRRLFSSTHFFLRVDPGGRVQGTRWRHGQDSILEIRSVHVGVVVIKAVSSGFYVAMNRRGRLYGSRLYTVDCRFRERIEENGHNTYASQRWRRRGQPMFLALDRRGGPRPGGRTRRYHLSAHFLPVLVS
# E coli growth = E. coli growth inhibition, primary screen, OD600. Escherichia coli growth, 23 h; active compounds read low. OD600 absorbance (no concentration beside the values). 0.21% of 330,000 active. AID 1053175, 2014;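 active = OD600 absorbance below the run mean of sample wells minus 3.6 SD, in any replicate, cut at about 0.56 in these data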;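 note: stock transfer was 300 nL into about 60 µL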
# Ecoli rRNA inh OD600 = recorded beside Ecoli rRNA inh, whose call it bears; OD600 change, %; measured here: OD600 growth;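 optical density of the mix in the first replicate; 0 = DMSO median and -100 = no signal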
# Ecoli rRNA inh RFP = recorded beside Ecoli rRNA inh, whose call it bears; RFP signal change, %; measured here: RFP humanized mutant strains;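 first replicate; 0 = DMSO median and -100 = no signal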
# Numbers without * were called inactive; i = inactive; . = no result given; + = active, no number; & = joins results of further samples. Some of the compounds tested (hit frequency here may not be typical).
SMILES,B2AR ag,UCH37 DUB inh,ALR H2O2 inh,Ecoli rRNA inh,Ecoli rRNA inh OD600,Ecoli rRNA inh RFP,HNF4A DNA FP,FGF22 binding,E coli growth
CCCN1C(=O)/C(=C/c2ccncc2)SC1=S,3,10,-5,-15,-36,-17,0.0,i,0.72
CC(C)(C)n1nnnc1C(c1cccs1)N1CCN(c2ccccc2)CC1 (stereo unspecified),1,5.6,.,.,.,.,-1.2,.,0.66
COC(=O)/C(=C\Nc1ccc(Cl)cc1Cl)NC(=O)c1ccc(Cl)cc1Cl,3,.,-3,.,.,.,-0.1,.,.
COc1cccc(N2CCN(c3ccc4nnc(CCC(=O)Nc5ccccc5OC)n4n3)CC2)c1,6,2.6,80*,-7,-5,1.6,0.1,i,0.67
CCOC(=O)C1(Cc2ccccc2C)CCCN(Cc2cc(OC)c(O)c(OC)c2)C1 (stereo unspecified),6,0.5,-51,10,8,-0.2,3.0,i,0.73
COc1cc(C2c3c(oc4c(C)cc(C)cc4c3=O)C(=O)N2Cc2cccnc2)ccc1O (stereo unspecified),-10,3.5,1,.,.,.,0.5,.,0.7
COc1ccc(N(Cc2cc3cccc(C)c3[nH]c2=O)S(=O)(=O)c2ccc(OC)cc2)cc1,-2,-4.4,-5,-11,0,5.9,2.4,i,0.71
COc1cccc(NC(=S)NNC(=O)c2c([N+](=O)[O-])c(C)nn2C)c1,-1,3.1,.,.,.,.,1.8,.,0.62
CSc1ncnc2c1ncn2CCCNCC1CCCCC1,.,.,.,0,13,0.0,4.1,i,.
O=C(NCCN1CCC(n2c(=O)[nH]c3ccccc32)CC1)c1ccc(OC(F)(F)F)cc1,.,.,.,-23,-26,0.9,2.8,i,.
O=C1OC(c2ccc(Cl)cc2)=N/C1=C\C=C\c1ccco1,5,4.7,24,22,13,11,-5.3,i,0.72
COc1cc(/C=N/Nc2ccc(Cl)c(C(=O)O)c2)ccc1OC(=O)c1cccs1,-3,.,97*,-27,-19,-8.2,-5.0,i,.
O=C1CCC[C@@H]2Cc3nc4cc5c(cc4cc3[C@@H]3CCN1[C@H]23)OCO5,-19,.,.,10,9,0.1,-0.6,i,.
c1ccc(Nc2nc3ccccc3n3cnnc23)cc1,-27,1.4,3,6,10,-1.5,0.9,i,0.71
CCc1nn(C(C)C(=O)N2CCc3ccccc3C2)c(=O)c2cc3occc3n12 (stereo unspecified),-2,-0.9,-1,.,.,.,-3.9,.,0.72
Oc1cccc(/C=N/Nc2cccc3cccnc23)c1,-1,.,.,-35*,-12*,-0.6*,-1.6,i,.
CCCN(C)C1CN(Cc2cn(Cc3ccc(Cl)cc3)nn2)S(=O)(=O)C1 (stereo unspecified),.,.,.,6,10,-3.2,0.7,i,.
C=CCn1c(SCC(=O)Nc2ncc(Cc3ccc(C)c(Cl)c3)s2)nnc1-c1ccncc1,0,0.9,-2,.,.,.,-1.7,.,0.67
Clc1ccc(OCCSc2ncccn2)c2ccccc12,24,0.7,-7,.,.,.,1.1,.,0.7
O=C(NS(=O)(=O)Nc1ccccc1)C1=C(N2CCCC2)COC1=O,-14,0.5,11,20,10,-3.3,3.0,i,0.68
Oc1ccc(Cl)cc1-c1cc(-c2ccccc2Cl)[nH]n1,4,1.4,-7,.,.,.,-0.3,.,0.73
Cc1ccc2c(CC(=O)NNC(=O)c3ccccc3)coc2c1,5,1.1,-1,5,12,1.9,-3.1,i,0.68
COc1ccc(/C=N/NC(=O)c2[nH]c3ccc(C)cc3c2-c2ccccc2)c(C(=O)O)c1OC,10,.,99*,-3,-9,-0.6,-2.4,i,.
O=C(N/N=C/c1c[nH]c2ccc(Br)cc12)c1ccc2c(c1)OCO2,8,.,6,-30*,16*,6.0*,1.1,+,.
CCOC(=O)Cc1nnc(NCc2ccccc2)c2ccccc12,0,2.9,15,-10,-14,2.4,-0.1,i,0.68

# Compound profiles (already shown). Order of screens: B2AR ag, UCH37 DUB inh, ALR H2O2 inh, Ecoli rRNA inh, Ecoli rRNA inh OD600, Ecoli rRNA inh RFP, HNF4A DNA FP, FGF22 binding, E coli growth
# c1ccc(Nc2nc3ccccc3n3cnnc23)cc1 is listed as -27, 1.4, 3, 6, 10, -1.5, 0.9, i, 0.71
# COc1cc(/C=N/Nc2ccc(Cl)c(C(=O)O)c2)ccc1OC(=O)c1cccs1 is listed as -3, ., 97*, -27, -19, -8.2, -5.0, i, .
# CCc1nn(C(C)C(=O)N2CCc3ccccc3C2)c(=O)c2cc3occc3n12 (stereo unspecified) is listed as -2, -0.9, -1, ., ., ., -3.9, ., 0.72
# CC(C)(C)n1nnnc1C(c1cccs1)N1CCN(c2ccccc2)CC1 (stereo unspecified) is listed as 1, 5.6, ., ., ., ., -1.2, ., 0.66

# (more compounds)
SMILES,B2AR ag,UCH37 DUB inh,ALR H2O2 inh,Ecoli rRNA inh,Ecoli rRNA inh OD600,Ecoli rRNA inh RFP,HNF4A DNA FP,FGF22 binding,E coli growth
CCn1cc([N+](=O)[O-])c(C(=O)N2N=C(c3ccc(O)c(OC)c3)CC2c2ccccc2O)n1 (stereo unspecified),-2,4.5,5,-43,-72,-19,1.7,i,0.68
CCOC(=O)c1cnn(-c2ccccc2)c1-c1ccccc1,-5,1.8,-3,.,.,.,4.6,.,0.71
CC(C)C(OC(=O)/C=C/c1ccc2c(c1)OCO2)C(=O)NC(N)=O (stereo unspecified),0,-45,-2,5,6,-1.8,0.1,i,0.72
Cc1ccc(C(=O)N/C(=C/c2ccco2)C(=O)N2CCOCC2)cc1,-3,7.4,5,11,4,2.2,2.1,i,0.69
CCc1ccc(NC(=O)COC(=O)/C(=C/c2ccccc2OC)c2ccccc2)cc1,8,7.0,-13,14,2,0.8,0.1,i,0.69
COc1ccc(Br)cc1C(=O)NC(=S)Nc1c(C)n(C)n(-c2ccccc2)c1=O,-9,1.6,21,-4,-6,-3.2,1.9,i,0.65
CCCCCN(C(=O)CCCSc1nncs1)c1c(N)n(CCCC)c(=O)[nH]c1=O,-10,1.3,-8,5,10,1.9,-3.1,.,0.68
Oc1ccc(COCc2ccccc2)c2cccnc12,0,0.8,-16,.,.,.,-1.7,.,0.72
CCOc1ccc(/C=N/NC(=O)Cc2csc(Nc3cccc(C(F)(F)F)c3)n2)c(OCC)c1,1,.,-17,4,0,3.8,-0.6,.,.
CCn1ncc(S(=O)(=O)NCc2ccco2)c1C,4,1.9,2,3,17,6.9,-5.5,i,0.71
COc1ccc(S(=O)(=O)N(C)C[C@H]2OCCCC[C@H](C)Oc3ccc(NC(=O)Nc4ccc(F)cc4)cc3C(=O)N([C@H](C)CO)C[C@H]2C)cc1,.,.,.,0&1,3&-3,-1.8&1.5,0.6,i,.
COC1OC(c2ccccc2)=C(c2cnc(N)nc2)c2ccc(F)cc21 (stereo unspecified),.,.,.,-5,-3,3.8,0.3,i,.
Cc1ccc(C(=O)CCC(=O)OCC(=O)NNC(=O)c2ccc([N+](=O)[O-])cc2)cc1,-1,0.9,-8,7,11,0.4,2.8,i,0.61
COCC(=O)N1CCC(Oc2ccc(C(=O)NCc3cc(C)n(C)n3)cc2)CC1,-1,0.1,-4,0,-5,-1.0,5.2,i,0.68
Cc1nc(C)c(-c2csc(Nc3ccc(N)cc3)n2)s1,6,1.6,51,-3,8,-3.8,0.4,i,0.67
COC(=O)c1ccc(C(=O)OC)c(NC(=O)COC(=O)CC2CC3CCC2C3)c1 (stereo unspecified),4,-13,-1,.,.,.,-0.7,.,0.75
O=c1cc(/C=C/c2ccccc2)oc2ccccc12,-1,-18,6,.,.,.,-3.5,.,0.62
CCOc1ccc(C(=O)Nc2cccc(-c3nc4ccccc4[nH]3)c2C)cc1[N+](=O)[O-],3,.,-4,-13,-6,5.9,-1.0,i,.
C=CCOc1ccc2c(c1)c(S(=O)(=O)c1ccc(C)cc1)cn2COC,-5,3.4,0,.,.,.,-2.5,.,0.68
O=[N+]([O-])c1ccc(/C([O-])=C(/C(=S)Nc2ccccc2F)[n+]2ccccc2)cc1,-1,8.1,-2,15,12,13,0.1,i,0.67
Cc1ccc(NC(=O)c2ccc(C#CC3(O)CCCCC3)cc2)cc1C,3,-27,-1,14,11,-3.3,-1.1,i,0.75
O=C(CCc1nnc2ccc(NCc3ccco3)nn12)Nc1cccc(F)c1,-9,2.7,10,-2,-9,0.5,-1.2,i,0.67
CCOC(=O)/C=C1\Nc2ccccc2OC1=O,-4,2.5,93*,.,.,.,1.3,i,0.71
COc1ccc(-c2nc3n(c2C)CCC3)cc1,-9,7.4,20,15,6,0.6,0.7,i,0.66
Cc1cccc2sc(N(CCCN(C)C)C(=O)c3ccco3)nc12,13,.,-12,4,3,2.4,4.7,i,.

# (listing goes on)
SMILES,B2AR ag,UCH37 DUB inh,ALR H2O2 inh,Ecoli rRNA inh,Ecoli rRNA inh OD600,Ecoli rRNA inh RFP,HNF4A DNA FP,FGF22 binding,E coli growth
COC(=O)c1sc(NC(=S)NC(=O)c2ccc(C)cc2)nc1C,7,3.6,-5,16,9,1.8,5.0,i,0.69
Cc1ccccc1OCC(=O)Nc1ccc(C(=O)Nc2ccccc2C(=O)O)cc1,2,2.0,.,-42,-49,-7.2,1.3,i,0.7
O=C(Nc1ccc(F)c(F)c1)c1ccco1,13,-2.9,-5,15,20,-5.4,-2.2,.,0.7
S=c1[nH]nc(-c2cc(-c3ccco3)[nH]n2)n1-c1cccc2ccccc12,-4,0.7,1,.,.,.,-4.4,.,0.67
Cc1ccccc1-n1c(=O)n(Cc2ccco2)c(=O)c2[nH]cnc21,-5,1.7,1,8,12,3.5,0.3,i,0.69
O=C1c2ccccc2-c2ncnc3c(N4CCOCC4)cc(N4CCOCC4)c1c23,-52,18,-11,-4,-12,1.8,6.6,i,0.69
CC(OC(=O)c1ccc(Cl)cc1O)C(=O)NCCC1=CCCCC1 (stereo unspecified),-4,-2.3,-3,.,.,.,1.8,i,0.66
CCN(CC)S(=O)(=O)c1ccc(N/N=C/c2ccccc2OCC(=O)O)c([N+](=O)[O-])c1,11,.,61,12,14,1.0,-0.3,i,.
CCOC(=O)c1c(C)[nH]c(O)c1C=Nc1ccc(C(F)(F)F)cc1,-20,1.0,-2,.,.,.,15,.,0.78
S=c1[nH]nc(NCCc2ccccc2)s1,-3,3.8,95*,9,-6,0.3,0.2,i,0.7
COc1ccc(C(CNC(=O)CNC(=O)c2cccc(C)c2)N2CCCCC2)cc1 (stereo unspecified),3,3.2,.,9,5,-0.8,-0.8,i,0.67
O=C(CCNC(=O)Cn1ccc2ccccc2c1=O)NCCc1ccc(Cl)cc1,-3,0.1,-16,1,6,-1.7,-3.2,i,0.64
CCCCNC(=O)CSc1nc2ccc(N3CCOCC3)cc2c(=O)n1CCc1ccccc1,-4,-50,-7,.,.,.,-0.3,.,0.65
CSCC[C@H](NC(=O)C1CCN(S(=O)(=O)c2ccc(C)cc2C)CC1)c1nc2ccccc2[nH]1,2,3.8,-3,2,-3,4.1,-0.5,i,0.72
O=C(CSC1=NNC(c2ccccn2)S1)Nc1cccc(Cl)c1 (stereo unspecified),-1,4.5,70,-3,2,-0.8,-2.4,i,0.63
COc1cc(N=Nc2ccccc2C(=O)O)ccc1O,7,13,98*,17,11,4.0,4.0,i,0.67
COc1ccc2nc(SCC(=O)Nc3ccc4[nH]c(=O)[nH]c4c3)[nH]c2c1,-3,-1.7,49,0,2,2.2,-6.0,i,0.65

# Assay outcomes (PubChem)
